Screening results from PubChem.
Marburg entry inh = blocks Marburg virus binding to or entry into cells; AID 540276; 300,000 compounds, 1.8% hits; Potency, µM (doses to about 37.8 µM), inactives show at the top dose activity change, negative = inhibition, usual class: inhibitors; Marburg virus pseudotyped entry inhibition, cell reporter; control for the full effect not named in the record; about a third of the inactives were read at about 46 µM; active = well fitted inhibition curve with a large enough effect; inconclusive = small, poorly fitted or top-dose-only effect, or effect the other way; inactive = flat fitted curve, though single readings scatter; tested in HEK293 cells; about a fifth of its hits are not listed in these tables; further: on the % scale 0 is the no-effect control and ±100 the full control effect; luciferase read-out
Cruzain Triton = cruzain (T. cruzi) inhibition with detergent | purified cruzain, Z-FR-AMC fluorescence, 0.01% Triton | Potency, µM, for inactives: max response, negative = inhibition, hits mostly inhibitors | 200,000 compounds, 0.43% hits;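 further: plate controls were neutral wells for no effect and buffer without enzyme for full effect; nearly all actives have a fitted effect of over 40% in size; top concentration of the series not given in the record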
Target sequence (P25779 123-467 limits assumed): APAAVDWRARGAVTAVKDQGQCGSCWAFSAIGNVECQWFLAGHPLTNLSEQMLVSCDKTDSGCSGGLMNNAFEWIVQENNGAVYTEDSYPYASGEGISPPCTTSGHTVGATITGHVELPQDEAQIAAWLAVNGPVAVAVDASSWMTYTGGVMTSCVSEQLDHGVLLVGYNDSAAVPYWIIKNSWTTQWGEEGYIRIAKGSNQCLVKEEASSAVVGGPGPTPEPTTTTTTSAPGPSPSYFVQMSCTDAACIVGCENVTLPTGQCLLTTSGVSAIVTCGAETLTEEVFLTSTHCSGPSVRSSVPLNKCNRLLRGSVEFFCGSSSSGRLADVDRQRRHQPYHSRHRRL
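Read-out: AMC fluorescence (360 nm excitation, 450 nm emission), four reads over 2 min, first-to-third difference used. Conditions: cruzain 1.5 nM, Z-FR-AMC 2 uM, pH 5.5 acetate, 5 mM DTT, 0.01% Triton X-100.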
LASV entry inh = inhibitors of Lassa virus binding or cell entry. Lassa virus pseudotype entry inhibition, cell reporter; control for the full effect not named in the record. 300,000 compounds, 1.2% hits. Potency, µM (top dose mostly 37.9 µM), for inactives: top-dose activity change, negative = inhibition, hits mostly inhibitors; active means well fitted inhibition curve with a large enough effect; inconclusive means small, poorly fitted or top-dose-only effect, or effect the other way; inactive means flat fitted curve, though single readings scatter; tested in HEK293 cells; further: on the % scale 0 is the no-effect control and ±100 the full control effect; nearly all actives have a fitted effect of over 50% in size; luciferase read-out
2A StopGo = FMDV 2A StopGo reporter, luciferase signal. human cells with a luciferase reporter of 2A StopGo recoding; control for the full effect not named in the record. Potency, µM (doses to about 57.9 µM), for inactives: top-dose signal change, negative = less light. 410,000 compounds, 1.2% hits. AID 1159524; active = well fitted falling curve with a large enough effect; inconclusive = small, poorly fitted or top-dose-only effect; inactive = no such curve, though single readings can be large or run the other way; tested in HEK293T cells; further: on the % scale 0 is the no-effect control and ±100 the full control effect; nearly all actives have a fitted effect of over 45% in size; luciferase light after 4 h
NS1 function inh = influenza NS1 inhibition. S. cerevisiae slowed by influenza A NS1, growth recovery by OD600. Potency, µM (top dose mostly 46.1 µM), for inactives: at the highest dose activity, positive = more growth. 270,000 compounds, 0.4% hits. AID 2326; active means well fitted rising curve with a large enough effect; inconclusive means small, poorly fitted or top-dose-only effect; inactive means no such curve, though single readings can be large or run the other way; further: nearly all actives have a fitted effect of over 50% in size
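Recovery from NS1-induced slow growth read by OD600 in budding yeast switched to galactose assay medium (pH 6.0, -URA) at 1:100 dilution. Compound 23 nl per well; the matching strain lacking NS1 serves as control.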
Cruzain inh noDet = cruzain (T. cruzi) inhibition without detergent; Potency, µM, for inactives: max response, negative = inhibition, hits mostly inhibitors; P25779; purified cruzain, Z-FR-AMC fluorescence, no detergent; 200,000 compounds, 2.3% hits;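 further: plate controls were enzyme without inhibitor for no effect and buffer without enzyme for full effect; nearly all actives have a fitted effect of over 40% in size; top concentration of the series not given in the record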
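Detergent-free condition (0.00005% Triton X-100) in acetate buffer pH 5.5 with DTT. 1.5 nM enzyme and compound were pre-mixed 15 min, then 2 uM Z-FR-AMC substrate added; reaction progress from fluorescence change between first and third reads (60 s).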
SARS PLP yeast = inhibitors of SARS-CoV papain-like protease in yeast | S. cerevisiae expressing SARS-CoV PLpro, growth rescue; control for the full effect not named in the record | 330,000 compounds, 0.19% hits | Potency, µM (top dose mostly 32.9 µM), inactives show at the top dose activity, positive = growth rescue | AID 485353; active means well fitted rising curve with a large enough effect; inconclusive means small, poorly fitted or top-dose-only effect; inactive means no such curve, though single readings can be large or run the other way; further: 0% is about no effect; nearly all actives have a fitted effect of over 55% in size; growth read by luminescence after 48 h
RE007 growth inh = less growth of the S. pombe RE007 Vpr strain. Potency, µM (doses to about 92.2 µM), inactives show at the highest dose activity change, negative = less growth. 360,000 compounds, 0.21% hits. AID 651644. S. pombe RE007 Vpr strain, BacTiter-Glo ATP luminescence, 24 h; control for the full effect not named in the record; active = well fitted falling curve with a large enough effect; inconclusive = small, poorly fitted or top-dose-only effect; inactive = no such curve, though single readings can be large or run the other way;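 further: on the % scale 0 is the no-effect control and ±100 the full control effect; nearly all actives have a fitted effect of over 50% in size; the assay follows cell death caused by Vpr and the record does not say whether a fall means rescue or toxicity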
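Fission yeast RE007 carrying one integrated HIV-1 vpr copy, seeded at OD 0.01 in PMG+AL medium with 23 nL pinned compound. Grown 24 h at 30 degrees; viability read by BacTiter-Glo luminescence after 5 min.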
Active calls of the source: *; ? = inconclusive; . = not tested or not shown; & = joins results of further samples; [ ] = remark or other dose. Unless noted, the call rests on the fitted dose curve; in most records, active means well fitted curve in the direction sought with a large enough effect; inconclusive means small, poorly fitted or top-dose-only effect, or another doubt; inactive means no such curve, though single readings can be large; an effect the other way counts as inactive or inconclusive. Potency means the concentration at half of the fitted maximal effect.

canonical_smiles	Marburg entry inh	Cruzain Triton	LASV entry inh	2A StopGo	NS1 function inh	Cruzain inh noDet	SARS PLP yeast	RE007 growth inh
CC1Cc2ccccc2N1C(=O)C1CCCN(S(=O)(=O)c2cccc3nsnc23)C1 (stereo unspecified)	?	-1.2%	-27%	?	6%	-9%	3%	1%
COc1ccc(CNC(=O)N2CCN(S(=O)(=O)c3ccc(C)cc3C)CC2)cc1	-23%	.	-12%	-6%	-24%	.	-3%	-6%
Cn1c(Oc2cccc(Cl)c2)nc2c1c(=O)n(Cc1ccccc1Cl)c(=O)n2C	-17%[46.1 µM]	-0.8%	30%[46.1 µM]	-10%	.	-1%	.	.
CC1CCC2(CC1)NC(=S)N(C(C)(C)C)N2 (stereo unspecified)	-6%[14.2 µM]	.	7%	0%	2%	.	-1%	7%
CC(C)CNC(=S)N(CCCN(C)C)Cc1cc2cc3c(cc2[nH]c1=O)OCCO3	.	.	.	-20%	5%	.	2%	-7%
O=C(c1cccc([N+](=O)[O-])c1)N1CCN(c2ccc(Cl)cc2)CC1	?	0.2%	6%	-30%	-28%	-4%	3%	-1%
COc1ccc(C)cc1NC(=O)C(OC(=O)c1ccc(Cl)c(S(=O)(=O)N(C)c2ccccc2)c1)c1ccccc1 (stereo unspecified)	-29%[46.1 µM]	2.7%	-8%	1%	-3%	10µM*	10%	0%
O=C(c1ccc(-c2cccc(C(F)(F)F)c2)o1)N1CCOCC1	?	-0.1%	-13%	25%	-61%	30%	0%	2%
CCOC(=O)c1c(N2C(=O)C3C4C=CC(C4)C3C2=O)sc2c1CCC(C)C2 (stereo unspecified)	-2%	-3.7%	6%	-9%	-7%	?	-9%	23%
CN(C)/C=N/C(=S)Nc1ccc(Cl)cc1Cl	-13%[46.1 µM]	.	?	44%[activator]	-4%	.	-2%	-29%
Cn1nnnc1SCC(=O)Nc1nc2c(s1)CCCC2	?	0.1%	-7%	.	6%	5%	3%	-20%
CC(C)NC(=O)c1ccccc1NC(=O)C(C)Oc1ccccc1 (stereo unspecified)	?	.	?	-17%	-3%	.	1%	3%
Cc1cc(N=Nc2ccc(C)c(N=Nc3cc(C)c(N)cc3N)c2)c(N)cc1N	.	.	.	-27%	5%	.	1%	-15%
O=C(Nc1nc2c(Br)cccc2s1)C1CC1	.	.	.	0%	-100%	.	-33%	?
O=C(Oc1c(CN2CCOCC2)cc(Cl)c2cccnc12)c1ccccc1Cl	?	.	?	-19%	.	.	-23%	?
COC(=O)c1ccccc1NC(=O)/C=C/c1cc(OC)c(OC)c(OC)c1	?	-10.0%	?	?	6%	?	16%	-14%
CCOC(=O)C1(Cc2ccccc2C(F)(F)F)CCN(C(C)CCn2cccn2)CC1 (stereo unspecified)	?	.	?	16%	2%	.	1%	5%
COc1cc(C(=O)NNC(=O)c2ccco2)cc(OC)c1OC	9%[46.1 µM]	.	6%	-15%	0%	.	-3%	182%
CCNc1sc(C(=O)c2cccs2)c(N)c1C#N	?	1.1%	-18%	0%	3%	-10%	0%	-12%
CCn1cc(CN2CCCC(C(=O)Nc3ccc(-c4cscn4)cc3)C2)c(C)n1 (stereo unspecified)	.	.	.	-3%	2%	.	-1%	-14%
CCc1cccc(NC(=S)N(CCCOC(C)C)C2CCN(C(C)=O)CC2)c1	.	.	.	-2%	4%	.	1%	-7%
CCOC(=O)Cn1c(=O)oc2cc(S(=O)(=O)N(C)Cc3ccco3)ccc21	.	5.6%	.	-23%	9%	-1%	2%	-5%
COc1cc(Cl)c(CN2CCC(CO)(CCOc3ccccc3)CC2)cc1OC	.	.	.	?	-11%	.	-1%	-19%
CCOC(=O)Cc1csc(N/N=C\c2cccc(Br)c2)n1	-20%	-23%	0%	10%	5%	32µM*	8%	-21%
CN1C(=O)N(C)C(=O)C2(Cc3cc(N)ccc3N3CCN(c4ccccc4F)CC32)C1=O (stereo unspecified)	.	-11%	.	.	-2%	-9%	-6%	.
CNc1nc(SC(C)C(=O)Nc2ccc(Cl)c(Cl)c2)nc(N2CCOCC2)n1 (stereo unspecified)	-14%[46.1 µM]	.	.	-6%	.	.	4%	?
CC1CC(C)CN(C(=O)CCc2nnc3ccc(N4CCCCC4)nn23)C1 (stereo unspecified)	1%[46.1 µM]	.	25%[46.1 µM]	7%	0%	.	1%	-17%
CCOC(=O)N1CCC(N2Cc3cccc(C(=O)Nc4ccc(F)cc4)c3C2=O)CC1	-2%	-7.1%	-2%	-15%	16%	?	8%	12%
O=C(NCc1cccs1)c1cc(-c2cccs2)on1	15%	4.5%	38%[14.3 µM]	110%[activator]	-8%	1%	1%	0%
CCOc1ccc(NC(=O)CSc2nc3ccccc3c(=O)n2CCC(=O)NC2CCCCC2)cc1	.	1.8%	7%[46.1 µM]	-2%	.	-10%	.	.
c1ccc(-c2cn3c(n2)-c2ccccc2C3)cc1	?	-2.8%	4.5µM*	-70%	-28%	2%	-68%	?
COc1ccc([C@@H]2[C@@H]3C(=O)N(C(C)(C)C)C(=O)[C@@H]3[C@]3(C)C(=O)N(c4cccc(F)c4)C(=O)N23)cc1	.	.	.	-15%	10%	.	1%	2%
COC(=O)c1ccc(CSc2nnc(CNC(=O)COc3ccc(Cl)cc3)o2)o1	-22%[46.1 µM]	-1.8%	1%	?	-5%	1%	8%	15%
CC(C)n1cc(CN2CCC(Oc3ccc(C(=O)N4CCCC4)cc3)CC2)cn1	33%	.	?	-2%	-1%	.	-1%	-21%
CC(=O)c1cc(C(=O)Nc2cc(C)cc(C)c2)c2ccccn12	-12%[46.1 µM]	-14%	27%[46.1 µM]	6%	.	?	.	.
CCCOC(=O)C(C)n1c(-c2ccccc2)nc2ccccc2c1=O (stereo unspecified)	-4%	-6.2%	-2%	19%	7%	6%	-29%	9%
COc1ccc(-c2c(C#N)c(SCC(=O)Nc3ccccc3C)nc(C)c2C(=O)Nc2ccc(Cl)cc2)cc1	.	5.7%	?	-16%	.	-21%	.	.
CN(C(=O)CC1C(=O)NCCN1Cc1ccc(F)c(F)c1)C1CCCCC1 (stereo unspecified)	24%	.	5%	-12%	9%	.	-6%	5%
COc1ccccc1CNC(=O)COc1cc2c(c3oc(=O)cc(C)c13)CCC(C)(C)O2	.	.	.	?	4%	.	-5%	-6%
COc1ccc(NC(=O)N2CCN(C(=O)C3CCCO3)CC2)cc1 (stereo unspecified)	?	.	-18%	-2%	4%	.	-1%	8%
CCn1cc(/C=N\NC(=O)c2ccc3c(c2)c(C)c(C)n3Cc2ccccc2)c(C)n1	-27%	-8.3%	?	?	20%	?	5%	22%
CN(C)C(=O)Oc1cc(=O)n2c3c(cccc13)CCC2	36%	-4.7%	6%	-2%	7%	-3%	11%	-8%
COc1ccc(NC(=O)c2cccc(NC(=O)c3ccccc3)c2)c(OC)c1	?	.	?	-24%	7%	.	2%	-2%
Cc1csc2nc(O)c(C(=O)NCc3ccc4c(c3)OCO4)c(=O)n12	2%[46.1 µM]	.	17%	-20%	.	.	-1%	-16%
N#CC(C#N)=Cc1cc(O)c(O)c(O)c1	-3%&-3%&-3%&-3%&-3%	-6.9%	.	-13%	16%	-3%	.	.
O=C(Nc1cccc2nsnc12)c1cccnc1	?	-6.2%	-4%	-25%	4%	-6%	-16%	-17%
O=C(c1cc2ccccc2o1)N1CCN(c2cccc(C(F)(F)F)c2)CC1	?	.	4%	-20%	-2%	.	-2%	4%
CCCOc1ccc(/C=N/Nc2cc(N3CCOCC3)ncn2)c(O)c1	.	.	.	-15%	-25%	.	5µM*	?

By substructure: those above containing fluorine (7)
canonical_smiles	Marburg entry inh	Cruzain Triton	LASV entry inh	2A StopGo	NS1 function inh	Cruzain inh noDet	SARS PLP yeast	RE007 growth inh
O=C(c1ccc(-c2cccc(C(F)(F)F)c2)o1)N1CCOCC1	?	-0.1%	-13%	25%	-61%	30%	0%	2%
CCOC(=O)C1(Cc2ccccc2C(F)(F)F)CCN(C(C)CCn2cccn2)CC1 (stereo unspecified)	?	.	?	16%	2%	.	1%	5%
CN1C(=O)N(C)C(=O)C2(Cc3cc(N)ccc3N3CCN(c4ccccc4F)CC32)C1=O (stereo unspecified)	.	-11%	.	.	-2%	-9%	-6%	.
CCOC(=O)N1CCC(N2Cc3cccc(C(=O)Nc4ccc(F)cc4)c3C2=O)CC1	-2%	-7.1%	-2%	-15%	16%	?	8%	12%
COc1ccc([C@@H]2[C@@H]3C(=O)N(C(C)(C)C)C(=O)[C@@H]3[C@]3(C)C(=O)N(c4cccc(F)c4)C(=O)N23)cc1	.	.	.	-15%	10%	.	1%	2%
CN(C(=O)CC1C(=O)NCCN1Cc1ccc(F)c(F)c1)C1CCCCC1 (stereo unspecified)	24%	.	5%	-12%	9%	.	-6%	5%
O=C(c1cc2ccccc2o1)N1CCN(c2cccc(C(F)(F)F)c2)CC1	?	.	4%	-20%	-2%	.	-2%	4%

Rows are unselected. About 4.7% of those tested had a hit in this group.
